HSV replic up = enhancers of HSV replication in host cells, fold increase, host cell viability; HSV replication augmentation in cells; maximum fold increase; 220,000 tested, 0.005% active;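 active = peak rise of 1.5-fold or more in the series; tested in PC3 cells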;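 also: first round at 10 µM; read as green reporter fluorescence; hits show the peak of a series up to 25 µM; 1 = signal of infected wells without compound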
GALR2 agonist = GALR2 receptor agonists, primary screen, cell-based. activation, %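 (tested at 5 µM)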. GALR2-expressing cells, agonist activation read-out. 140,000 tested, 0.48% active;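 active = above mean plus 3 SD of all compounds, about 5% in these data, not always enough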;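 also: 0% = vehicle buffer wells and 100% = reference agonist at full effect; tested in CHO reporter cells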
Target sequence (O43603 whole entry, looked up): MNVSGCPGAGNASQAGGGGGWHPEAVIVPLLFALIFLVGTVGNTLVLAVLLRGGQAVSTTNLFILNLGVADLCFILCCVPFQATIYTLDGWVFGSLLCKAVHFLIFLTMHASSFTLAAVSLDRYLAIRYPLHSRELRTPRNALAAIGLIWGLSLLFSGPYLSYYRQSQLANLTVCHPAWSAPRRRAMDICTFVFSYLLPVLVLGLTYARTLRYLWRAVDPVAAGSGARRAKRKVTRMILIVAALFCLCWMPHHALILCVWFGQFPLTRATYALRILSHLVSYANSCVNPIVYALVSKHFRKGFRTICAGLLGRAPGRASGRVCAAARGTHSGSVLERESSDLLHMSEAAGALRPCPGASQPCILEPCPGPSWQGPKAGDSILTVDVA
PKD1 kinase inh = inhibitors of human PKD1 kinase, biochemical, fluorescence polarization | Serine/threonine-protein kinase D1 (Homo sapiens), Q15139 | AID 797, 2007 | inhibition, %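 (about 10 µM by stock and volumes)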 | 200,000 tested, 0.056% active | PKD1 kinase fluorescence polarization assay;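 active = inhibition of 50% or more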;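 also: controls were vehicle for no effect and a reference inhibitor for full effect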
Insulin prom inh = inhibitors of insulin promoter-driven GFP, primary screen, imaging, TRM-6 cells (human fetal islet line), eGFP reporter, cell count | reporter expression induced with tamoxifen | 130,000 tested, 0.9% active | AID 1273, 2008 | inhibition, % at 2 µM;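 active = inhibition above the mean plus 3 SD, with well images judged a real hit on visual review, cut at about 60% in these data, passing the limit was not always enough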
RGS16-Gao HTS = modulators of RGS16 binding to Galphao, primary screen, biochemical, human proteins, multiplexed bead flow cytometry; Regulator of G-protein signaling 16 (Homo sapiens) + Guanine nucleotide-binding protein …; bead-based flow cytometry RGS16-Galphao binding, fluorescence; actives lie on both sides; binding response (% of control), % at 10 µM; 220,000 tested, 0.38% active; AID 1441, 2008;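 active = below 25% or above 175%, edge rows of some plates excepted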;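 also: Galphao activated by GDP with aluminum fluoride before binding; 100% = wells without compound and 0% = beads without RGS; some results beyond the cut were filed as inactive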
Target sequence (O15492 whole entry, looked up): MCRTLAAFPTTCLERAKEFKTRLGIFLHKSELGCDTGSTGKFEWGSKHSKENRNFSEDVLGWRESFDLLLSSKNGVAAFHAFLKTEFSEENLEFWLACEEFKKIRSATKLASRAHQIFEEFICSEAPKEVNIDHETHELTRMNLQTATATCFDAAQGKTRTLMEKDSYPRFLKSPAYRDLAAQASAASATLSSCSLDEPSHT
Target sequence (P09471 whole entry, looked up): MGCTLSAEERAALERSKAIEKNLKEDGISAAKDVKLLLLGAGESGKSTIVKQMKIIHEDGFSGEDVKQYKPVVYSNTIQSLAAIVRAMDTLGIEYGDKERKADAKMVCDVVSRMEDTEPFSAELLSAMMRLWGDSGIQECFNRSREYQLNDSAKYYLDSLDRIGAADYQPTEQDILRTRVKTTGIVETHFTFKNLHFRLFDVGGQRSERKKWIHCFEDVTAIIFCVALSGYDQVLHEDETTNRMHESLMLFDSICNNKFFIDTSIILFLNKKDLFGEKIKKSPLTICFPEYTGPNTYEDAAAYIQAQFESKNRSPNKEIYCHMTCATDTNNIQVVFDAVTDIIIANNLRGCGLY
Insulin prom inh cell count = second read-out of Insulin prom inh, no call of its own (marks repeat the call); normalized cell count, %; measured here: cell count, toxicity; reference of the scale not given here;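 cells exposed to compound for 48 h; stained nuclei by imaging scaled within each plate; lower means fewer cells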
HSV replic up primary fold = further read-out of HSV replic up, marked with its call; fold increase; compound at 10 µM; measured here: primary screen fold increase 10 uM; tested in PC3 cells;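 GFP signal in the first replicate; 1 = infected wells without compound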
* = called active by the depositor; i = inactive; . = not tested or not shown. Rows are unselected (roughly 1.3% active in at least one column).

SMILES	HSV replic up	HSV replic up primary fold	GALR2 agonist	PKD1 kinase inh	Insulin prom inh	Insulin prom inh cell count	RGS16-Gao HTS
N#C/C(C(=O)Oc1ccccc1)=C1\C=Cc2ccccc2N1	i	0.86	4.5	-7	-19	105	83
NNS(=O)(=O)c1ccc(Cc2ncc(C(F)(F)F)cc2Cl)s1	i	1	-0.2	5	36	149	99
COc1ccc(Oc2c(Cl)cnn(-c3ccccc3)c2=O)cc1	.	.	-0.5	8	-50	67	96
O=C(COC(=O)Cc1n[nH]c(=O)c2ccccc12)Nc1ccc(Cl)cc1F	i	1	.	-1	.	.	96
COc1ccc(S(=O)(=O)NCc2ccc(C(=O)N(C)Cc3ccco3)cc2)cc1	i	0.86	-0.7	-1	36	118	106
COc1cc(/C=C(\NC(C)=O)C(=O)Nc2ccc(NC(C)=O)cc2)ccc1OC(C)=O	i	1	-0.5	-7	17	103	112
CSc1cccc(NC(=S)N(CCCN2CCCC2)Cc2cccs2)c1	i	0.89	.	2	-7	63	97
Cc1ccccc1NC(=O)Cc1nnc(SCC(=O)c2ccc(Br)cc2)n1C	i	0.92	-0.9	-6	-70	96	126
CCSC1=NN2CCS(=O)(=O)N=C2S1	i	0.55	.	-1	.	.	98
Cc1cccc(N2CCN(c3cccc(C)c3)C2c2cccnc2)c1	i	0.92	-1.2	10	.	.	161
Cc1ccc(C(=O)OCC(=O)NC2CCCCC2)s1	i	0.99	.	-8	.	.	104
CC(C)(CC(=O)O)CC(=O)Nc1ccccc1Oc1ccccc1	i	0.88	.	.	.	.	104
O=C(CSc1nc2ccc(Nc3nc(N4CCOCC4)nc(N4CCOCC4)n3)cc2s1)NCc1ccco1	i	0.88	.	-4	-36	93	99
CC(C)CCNC(=O)c1ccc2c(SCC(=O)O)c3c(nc2c1)CCCC3	i	0.91	-2.1	-3	44	72	109
Cc1[nH]c2ccccc2c1Cc1n[nH]c(=S)o1	i	1.1	-1.6	-11	.	.	102
O=C(Cn1nnc(-c2ccc(N3CCOCC3)cc2)n1)OC1CCCCC1	i	0.73	-1.0	20	-38	71	97
C=CCOC(=O)C1=C[C@@H](c2csc3ccccc23)C[C@@H](OCc2ccc(CO)cc2)O1	i	0.88	.	-10	.	.	104
COc1ccc(/C=N/NC(=O)Cc2csc(Nc3cccc(C(F)(F)F)c3)n2)cc1C	i	1	-1.8	4	.	.	103
O=C(NC1(C(F)(F)F)N=C2SCCN2C1=O)c1ccccc1 (stereo not drawn)	i	0.99	-1.2	-2	-26	78	116
Cc1cccc(C)c1OCC(O)CN(Cc1ccccc1O)C1CCCCC1 (stereo not drawn)	i	0.99	.	-7	.	.	100
CCOc1cccc(C2C(C(=O)c3ccc(C)o3)=C(O)C(=O)N2Cc2ccncc2)c1 (stereo not drawn)	i	0.9	-0.2	4	18	88	97
CCc1ccc(CNC(=O)C2CCC(=O)N2C2CCCCC2)cc1 (stereo not drawn)	i	1.1	-1.2	4	-72	98	96
CN1CCCN(S(=O)(=O)c2ccc3c(c2)OCCO3)CC1	i	0.9	-2.4	-5	-11	90	105
COc1ccccc1Oc1coc2cc(OC(=O)N3CCOCC3)ccc2c1=O	i	0.99	-2.4	3	5	102	25
CCOC(=O)c1cc2occc2n1CC(=O)N1CCOCC1	i	0.92	-1.1	-5	28	102	85
CC1(C)CC(=O)C2=C(C1)N=C1c3ccccc3C(=O)C1C2c1ccc(Cl)cc1 (stereo not drawn)	i	1.1	0.3	-9	.	.	99
Cc1ccc(/C(N)=N/OC(=O)CSc2ccccc2)cc1	i	0.98	.	-3	-168	114	91
CCN(CC)C(=O)COc1ccc(CC(=O)O)cc1OC	i	0.87	-4.8	6	.	.	113
COc1cc(C(=O)Nc2cccc(S(=O)(=O)N3CCCC3)c2)cc(OC)c1C	i	0.99	.	.	.	.	98
O=C(Nc1cccc(S(=O)(=O)N2CCCCC2)c1)c1ccccn1	i	1.1	.	-4	.	.	101
Cc1cc(C)cc(OCc2nc3ncc(Br)cc3[nH]2)c1	i	0.7	0.4	6	-29	118	.
CCN(CC)C(=O)Oc1cc(=O)n2c3c(cccc13)CCC2	i	0.91	-0.3	-1	15	166	103
CN1CCN(c2ncnc3sc(-c4ccccc4)cc23)CC1	i	0.67	.	0	-5	127	126
O=C(Cc1ccc(Cl)c(Cl)c1)OCC(=O)c1ccc[nH]1	i	1	0.3	-6	.	.	99
NC(=O)c1ccc(NC(=O)CCCN2C(=O)c3ccccc3C2=O)cc1	i	0.8	-1.5	-8	32	92	100
CN(C)C(=O)C1CCC(=O)N1Cc1cccs1 (stereo not drawn)	i	1.1	.	-4	35	59	101
Cc1ccc(CCNC(=O)CN(C)S(=O)(=O)c2ccc3c(c2)n(C)c(=O)c(=O)n3C)cc1	i	0.92	.	.	.	.	101
CSc1ccc(S(=O)(=O)NCc2ccc(Cl)cc2)cc1	i	0.99	-1.1	4	-3	147	99
COc1ccc(C(=O)[C@H]2[C@H]3C(=O)N(c4ccc(C)cc4)C(=O)[C@H]3C3C=CC=NN32)cc1 (stereo partly drawn)	i	0.85	.	.	.	.	93
Cc1ccc(OC(C)C(=O)N(Cc2cccs2)C2CCS(=O)(=O)C2)cc1C (stereo not drawn)	i	1.4	.	.	.	.	102
NNc1nc2ccccc2nc1C(F)(F)F	i	0.93	.	-3	12	88	102
O=C1NCC(=O)N(Cc2ccccc2)/C1=C/c1ccccc1	i	1.1	.	2	44	97	101
O=C(CSc1nc2ccccc2o1)N1c2ccccc2Sc2ccc(C(F)(F)F)cc21	i	1.1	0.4	-8	-3	129	108
C=CCOC(=O)C1=C[C@H](c2coc3ccccc3c2=O)C[C@H](OCc2ccc(CO)cc2)O1	i	0.8	.	10	.	.	100
Cc1nc(Cl)sc1C(=O)Nc1cccc(Cl)c1C	i	0.76	-0.9	-4	-41	137	97
O=C(NNC(=O)c1cnccc1C(F)(F)F)c1cccc(Cl)c1	i	1.1	.	.	.	.	99
CCOCCCNC(=O)C1CCCN1S(=O)(=O)c1ccc(Cl)cc1 (stereo not drawn)	i	0.85	-0.9	-4	-7	115	100
CC(=O)c1ccc2c(c1)OCCOCCOc1ccc(C(C)=O)cc1OCCOCCO2	i	0.96	.	.	.	.	101
CN(c1ccccc1)c1ccc(/C=C(\CCC(=O)O)c2nc3ccccc3s2)cc1[N+](=O)[O-]	i	0.79	-0.3	3	-19	112	102
Cc1cc(C)nc(NS(=O)(=O)c2ccc(N/C=C\C(=O)c3cccs3)cc2)n1	i	0.88	.	4	41	83	101
O=C1CS/C(=N/N=C/c2cccs2)N1Cc1ccc(F)cc1	i	0.88	.	.	.	.	89
CCCn1c(SCC(=O)NC2CCCCC2)nnc1-c1ccccn1	i	0.91	.	0	.	.	103
COC(=O)CCSCC(=O)Nc1nnc(C)s1	i	0.95	-1.1	1	.	.	99
CC(CCc1ccccc1)NC(=O)C(=O)NCc1ccccc1 (stereo not drawn)	i	0.94	1.2	-8	33	109	83
COc1ccc(OC)c(S(=O)(=O)N(C)CC(=O)N2CCN(c3cccc(Cl)c3)CC2)c1	i	0.98	-2.0	-5	27	98	101
O=C(Nc1ccc(N2CCN(C(=O)c3ccc(Cl)cc3)CC2)cc1)c1cccnc1	i	0.91	-2.0	0	16	72	83
Cc1cc2ccccn2c1C(=O)c1ccc(NN)c([N+](=O)[O-])c1	i	0.76	.	-10	.	.	97
Cc1noc(C)c1S(=O)(=O)N(Cc1ccccc1)C(C)C	i	1.1	.	.	.	.	96
CCc1nc(SCC(=O)c2cccs2)c2oc3ccccc3c2n1	i	1.3	-0.7	5	16	56	99
CCOc1cc(C)c(C(C)C)cc1S(=O)(=O)N1CC(C)OC(C)C1 (stereo not drawn)	i	0.98	-2.2	-1	-282	92	99

Not a retest: entries from further up.
SMILES	HSV replic up	HSV replic up primary fold	GALR2 agonist	PKD1 kinase inh	Insulin prom inh	Insulin prom inh cell count	RGS16-Gao HTS
O=C(CSc1nc2ccccc2o1)N1c2ccccc2Sc2ccc(C(F)(F)F)cc21	i	1.1	0.4	-8	-3	129	108
C=CCOC(=O)C1=C[C@H](c2coc3ccccc3c2=O)C[C@H](OCc2ccc(CO)cc2)O1	i	0.8	.	10	.	.	100
Cc1nc(Cl)sc1C(=O)Nc1cccc(Cl)c1C	i	0.76	-0.9	-4	-41	137	97
O=C(NNC(=O)c1cnccc1C(F)(F)F)c1cccc(Cl)c1	i	1.1	.	.	.	.	99
CCOCCCNC(=O)C1CCCN1S(=O)(=O)c1ccc(Cl)cc1 (stereo not drawn)	i	0.85	-0.9	-4	-7	115	100
CC(=O)c1ccc2c(c1)OCCOCCOc1ccc(C(C)=O)cc1OCCOCCO2	i	0.96	.	.	.	.	101
CN(c1ccccc1)c1ccc(/C=C(\CCC(=O)O)c2nc3ccccc3s2)cc1[N+](=O)[O-]	i	0.79	-0.3	3	-19	112	102
Cc1cc(C)nc(NS(=O)(=O)c2ccc(N/C=C\C(=O)c3cccs3)cc2)n1	i	0.88	.	4	41	83	101
O=C1CS/C(=N/N=C/c2cccs2)N1Cc1ccc(F)cc1	i	0.88	.	.	.	.	89
CCCn1c(SCC(=O)NC2CCCCC2)nnc1-c1ccccn1	i	0.91	.	0	.	.	103
COC(=O)CCSCC(=O)Nc1nnc(C)s1	i	0.95	-1.1	1	.	.	99
CC(CCc1ccccc1)NC(=O)C(=O)NCc1ccccc1 (stereo not drawn)	i	0.94	1.2	-8	33	109	83
COc1ccc(OC)c(S(=O)(=O)N(C)CC(=O)N2CCN(c3cccc(Cl)c3)CC2)c1	i	0.98	-2.0	-5	27	98	101
O=C(Nc1ccc(N2CCN(C(=O)c3ccc(Cl)cc3)CC2)cc1)c1cccnc1	i	0.91	-2.0	0	16	72	83
Cc1cc2ccccn2c1C(=O)c1ccc(NN)c([N+](=O)[O-])c1	i	0.76	.	-10	.	.	97
Cc1noc(C)c1S(=O)(=O)N(Cc1ccccc1)C(C)C	i	1.1	.	.	.	.	96
CCc1nc(SCC(=O)c2cccs2)c2oc3ccccc3c2n1	i	1.3	-0.7	5	16	56	99
CCOc1cc(C)c(C(C)C)cc1S(=O)(=O)N1CC(C)OC(C)C1 (stereo not drawn)	i	0.98	-2.2	-1	-282	92	99

(listing goes on)
SMILES	HSV replic up	HSV replic up primary fold	GALR2 agonist	PKD1 kinase inh	Insulin prom inh	Insulin prom inh cell count	RGS16-Gao HTS
CCc1ccc(OC2=NS(=O)(=O)c3ccccc32)cc1	i	0.87	.	2	20	71	89
Cc1ccc(NCC(=O)N/N=C/c2cccc(Br)c2)cc1	i	0.93	.	7	.	.	99
Cc1cc(N(C)C)nc(SC(C)C)n1	i	0.91	-1.7	-2	55	108	103
CCOC(=O)c1c(NC(C)=O)sc2c(OC)cccc12	i	0.89	-1.3	-7	44	141	98
COc1ccc(C)cc1-n1nnnc1SCc1cc(=O)n2cc(C)ccc2n1	i	1.1	-2.9	-5	.	.	98
COc1c2ccoc2c(OC[C@@H](O)C(C)(C)OC)c2oc(=O)ccc12	i	0.87	-1.1	1	-5	111	62
COc1cccc(C(=O)C2CCCN(Cc3ccc(OC)c(Cn4cncn4)c3)C2)c1 (stereo not drawn)	i	1	.	.	.	.	104
CCOc1ccc(-c2cn[nH]c2N)cc1	i	0.71	-0.5	-4	36	81	101
CCc1cc(-c2n[nH]c(=S)n2CC(C)C)cs1	i	1.1	-0.8	-9	-41	111	111
Cc1c(-n2c(SCC(=O)O)nnc2-c2ccccc2Br)c(=O)n(-c2ccccc2)n1C	i	0.95	.	.	.	.	95
COc1cc(CNCc2ccccn2)ccc1OCC(=O)NC1CCCCC1	i	0.92	-0.4	2	.	.	98

Full records, quoted from the list:
`Cc1c(-n2c(SCC(=O)O)nnc2-c2ccccc2Br)c(=O)n(-c2ccccc2)n1C` is entered as HSV replic up = i; HSV replic up primary fold = 0.95; GALR2 agonist = .; PKD1 kinase inh = .; Insulin prom inh = .; Insulin prom inh cell count = .; RGS16-Gao HTS = 95
`COc1cccc(C(=O)C2CCCN(Cc3ccc(OC)c(Cn4cncn4)c3)C2)c1` (stereo not drawn) is entered as HSV replic up = i; HSV replic up primary fold = 1; GALR2 agonist = .; PKD1 kinase inh = .; Insulin prom inh = .; Insulin prom inh cell count = .; RGS16-Gao HTS = 104

From PubChem
